Assay outcomes (PubChem)
eIF4H FP inh: human eIF4H binding inhibitors, primary screen, translation initiation inhibitor project, biochemical, uHTS, fluorescence polarization. Eukaryotic translation initiation factor 4H (Homo sapiens), Q15056. eIF4H fluorescence polarization binding assay. inhibition, % at 35 µM. 290,000 tested, 0.94% active. AID 2012, 2009;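 active = 50% or more with normal probe brightness, or confirmed in later tests; about a fifth of its hits are not listed in these tables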;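 note: calls also rest on retests at 20 µM and on dose response follow-up; 0% = protein and probe with vehicle and 100% = probe without protein; strong numbers were not always called active; many hits fall short of the cut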
CSC inhib: cancer stem cell viability inhibitors, primary screen, luminescence; inhibition, % at 7.5 µM; cancer stem cell-like cells viability; 300,000 tested, 1.1% active;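 active = mean at 75% or more and at least half the replicates too; tested in HMLE shEcad cells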;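 note: 0% = median of negative and 100% = median of positive control wells; the first replicate is given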
Yeast UUG start: modulators of yeast start codon fidelity, primary screen, whole organism, S. cerevisiae, single point, plate reader; S. cerevisiae UUG-firefly luciferase reporter, luminescence/redox ratio; activity score, % at 18.7 µM; 350,000 tested, 0.13% active; AID 602363, 2012;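 active = replicate mean at a twofold rise or more, about +100% in these data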;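 note: firefly luciferase made from a UUG start codon reports start codon fidelity; reporter light over untreated wells divided by growth signal over untreated wells; some hits fall short of that in this replicate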
MT1-MMP act inh: blockers of MT1-MMP proenzyme processing, primary screen, HT1080 RFP-PRO-GFP cells, GFP/RFP fluorescence. Matrix metalloproteinase-14 (Homo sapiens), P50281. AID 651647, 2012. GFP/RFP ratio fluorescence, overnight; percent of plate control window, DMSO zero. 360,000 tested, 0.061% active. GFP/RFP ratio change, % at 20 µM;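 active = GFP/RFP ratio change of at least 30% with cell ATP level not reduced by more than half and red fluorescence within 50% of control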; note: strong numbers were not always called active
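Material – HT1080 RFP-PRO-GFP cells · Control set – DMSO wells and RFP-L50D-GFP cells · Incubation – overnight cell settling, then overnight compound exposure, 37 °C, 5% CO2 · Compound dosing – single-point 20 µM compound, 1% DMSO · Read-out – GFP/RFP fluorescence ratio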
Env fusion inh: inhibitors of HIV-1 Env-driven cell-cell fusion, primary screen, HeLa-JRFL effector, CEM21 target cells, luciferase; 360,000 tested, 1.1% active; AID 651610, 2012; inhibition, % at 12.3 µM;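 active = mean replicate inhibition score of at least 50 and every replicate individually at or above 50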;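 note: 0% = plate neutral controls and 100% = maraviroc near 300 nM; one replicate is shown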
PABP FP inh: PABP poly(A) RNA binding inhibitors, primary screen, biochemical, fluorescence polarization, uHTS; 290,000 tested, 1% active; AID 2014, 2009; Polyadenylate-binding protein 1 (Homo sapiens), P11940; inhibition, % at 35 µM;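 active = 50% or more with normal probe brightness, or confirmed in later tests; about a fifth of its hits are not listed in these tables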;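 note: calls also rest on retests at 20 µM and on dose response follow-up; controls were probe without protein and protein plus probe with vehicle; some compounds called inactive have numbers as strong as hits; many hits fall short of the cut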
Target sequence (P11940 whole entry, looked up): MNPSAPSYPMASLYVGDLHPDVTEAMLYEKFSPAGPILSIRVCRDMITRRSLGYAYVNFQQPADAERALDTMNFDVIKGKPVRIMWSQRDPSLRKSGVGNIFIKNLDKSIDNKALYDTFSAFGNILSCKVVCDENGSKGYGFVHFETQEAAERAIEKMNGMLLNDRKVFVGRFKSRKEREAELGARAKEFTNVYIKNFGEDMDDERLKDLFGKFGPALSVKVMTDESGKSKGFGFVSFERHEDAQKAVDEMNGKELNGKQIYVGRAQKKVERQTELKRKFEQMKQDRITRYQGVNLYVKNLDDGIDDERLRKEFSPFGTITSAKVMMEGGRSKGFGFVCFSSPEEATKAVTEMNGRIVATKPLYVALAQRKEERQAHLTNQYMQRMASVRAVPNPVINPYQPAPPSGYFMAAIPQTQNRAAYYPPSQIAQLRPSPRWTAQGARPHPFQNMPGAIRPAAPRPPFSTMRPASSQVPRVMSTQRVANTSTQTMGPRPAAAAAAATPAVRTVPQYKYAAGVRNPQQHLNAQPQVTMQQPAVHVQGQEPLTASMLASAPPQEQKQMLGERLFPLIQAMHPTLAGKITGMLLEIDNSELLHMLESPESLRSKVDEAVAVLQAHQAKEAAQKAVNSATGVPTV
Rce1 inh: yeast Rce1p protease inhibitors, primary screen, biochemical, fluorescence, cell-free homogeneous; CAAX prenyl protease 2 (Saccharomyces cerevisiae (strain ATCC 204508 / S288c)), Q03530; yeast membranes, quenched prenylated peptide cleavage fluorescence; calls only; 290,000 tested, 0.27% active;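 active = fall in fluorescence gain of 50% or more versus controls, with final raw signal at or below 3038400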;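 note: plate controls were neutral control wells for no effect and wells lacking membranes for full effect; tested at 10 µM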
Target sequence (Q03530 whole entry, looked up): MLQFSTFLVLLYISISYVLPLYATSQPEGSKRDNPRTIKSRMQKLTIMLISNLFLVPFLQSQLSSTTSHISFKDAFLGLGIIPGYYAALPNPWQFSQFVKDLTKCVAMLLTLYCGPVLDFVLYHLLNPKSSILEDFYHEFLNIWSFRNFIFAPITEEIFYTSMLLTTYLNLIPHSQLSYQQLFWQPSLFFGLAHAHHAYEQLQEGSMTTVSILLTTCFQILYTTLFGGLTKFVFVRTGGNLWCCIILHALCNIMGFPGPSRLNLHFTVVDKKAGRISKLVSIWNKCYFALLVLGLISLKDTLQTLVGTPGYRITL
MT1-MMP act inh RFP: recorded beside MT1-MMP act inh, whose call it bears; RFP signal change, %; measured here: RFP expression control read;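 0 = vehicle wells; hits needed this value within 50% of zero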
* = called active by the depositor; i = inactive; . = no result given. Only part of the results is shown; the hit share may differ from the screen's.

The opening 2 records, to show the layout:
Sequence of screens: eIF4H FP inh	CSC inhib	Yeast UUG start	MT1-MMP act inh	MT1-MMP act inh RFP	Env fusion inh	PABP FP inh	Rce1 inh
- Cc1cc(S(=O)(=O)NCc2ccccn2)c(Cl)cc1Cl
→ -5	-23	-18	-1	1	5	2	i
- COc1ccc(C(=O)Cn2c(=O)c(CCC(=O)O)nn3c4ccccc4nc23)cc1OC
→ -8	1	-5	3	2	.	3	i

The listing, from the first entry:
Sequence of screens: eIF4H FP inh	CSC inhib	Yeast UUG start	MT1-MMP act inh	MT1-MMP act inh RFP	Env fusion inh	PABP FP inh	Rce1 inh
- Cc1cc(S(=O)(=O)NCc2ccccn2)c(Cl)cc1Cl
→ -5	-23	-18	-1	1	5	2	i
- COc1ccc(C(=O)Cn2c(=O)c(CCC(=O)O)nn3c4ccccc4nc23)cc1OC
→ -8	1	-5	3	2	.	3	i
- O=c1c2ccccc2cnn1Cc1n[nH]c(=S)n1-c1ccc(Cl)cc1Cl
→ 1	-8	.	.	.	.	15	i
- CN(C)C(=O)CSc1nnc(-c2cccs2)n1-c1ccccc1
→ -8	-8	-18	-1	0	13	9	i
- Cc1ccc(NC(=O)C2CC(=O)N(c3ccc4c(c3)OCCO4)C2)cc1S(=O)(=O)N(C)C (stereo not drawn)
→ .	2	0	0	-11	7	.	i
- COc1nc(OC)nc(N(C)CCO)n1
→ -4	-16	0	-2	5	.	3	i
- Cc1nonc1-c1csc(N)n1
→ -3	-19	-5	1	0	-12	6	i
- CCOc1ccc(NC(=O)c2nn(C)c(C(=O)Nc3ccc(OCC)cc3)c2[N+](=O)[O-])cc1
→ -4	-9	-18	1	-3	7	5	i
- CC1CCN(c2ccc(NC(=O)c3ccc([N+](=O)[O-])o3)cc2)CC1
→ .	100*	-8	-35	-33	.	.	i
- CCCCCCNC(=O)c1cc(S(=O)(=O)N2CCc3ccccc32)ccc1F
→ 5	2	-14	0	-5	12	-4	i
- CCC(=O)Nc1cccc(NC(=S)NC(=O)c2ccccc2C)c1
→ 6	-5	.	5	-4	-16	-11	i
- Cc1cccc(NS(=O)(=O)c2ccc3c(c2)CCN3C(=O)CCC(=O)O)c1
→ -9	-9	-12	-3	0	-1	3	i
- Cc1ccc(N2C(=O)C3C4C=CC(CNC(=S)N5CCN(c6ccccn6)CC5)(O4)C3C2=O)cc1 (stereo not drawn)
→ -1	-6	.	2	1	-4	-10	i
- Cc1ccc(C(=O)NNC(=S)Nc2cccc3ccccc23)s1
→ 11	.	.	1	2	.	0	i
- COC(CNS(=O)(=O)c1ccc(Cl)cc1)c1ccccc1 (stereo not drawn)
→ -6	-20	-13	-1	-3	18	2	i
- CC(C)c1ccc(NC(=O)C2Cc3c(-c4ccccc4Oc4ccccc4)ccnc3O2)cc1 (stereo not drawn)
→ .	.	-14	0	-8	-11	.	.
- Cc1ccc(S(=O)(=O)NCCNS(=O)(=O)c2ccc(C)cc2)cc1
→ 2	-2	-13	-5	-8	6	5	i
- CC(=O)NC(C)c1cc(F)c2cccnc2c1O (stereo not drawn)
→ .	-4	-23	2	4	-10	.	.
- COc1ccc(C2c3sc(=O)[nH]c3SCC2C(N)=O)cc1 (stereo not drawn)
→ 7	-7	8	-1	0	8	9	i
- COc1ccc(S(=O)(=O)N2CCN(CC(=O)c3c(N)n(C)c(=O)n(C)c3=O)CC2)cc1OC
→ .	.	-12	1	6	11	.	.
- CCN1C(=O)C(CC(=O)Nc2ccc(OC)cc2)N(Cc2ccco2)C1=S (stereo not drawn)
→ 4	6	-19	0	4	4	9	i
- CCC(C)c1nc2ccsc2c(N2CCOC2=O)c1-c1ccccc1 (stereo not drawn)
→ .	3	-13	-8	-8	-5	.	i
- Cc1nnc(SCC(=O)Nc2ccc(Br)cn2)[nH]c1=O
→ 6	-10	-25	1	4	.	12	i
- COc1ccc(CNC/C=C/c2ccccc2)cc1
→ -7	.	-6	1	2	-1	-2	i
- CCOc1ccc(OCCC(=O)OCC(=O)N2CCN(S(=O)(=O)c3ccc(C)cc3)CC2)cc1
→ .	-3	-12	3	2	-9	.	i
- Clc1cc(CSc2ccccc2)nc(-c2ccccc2)n1
→ -3	.	.	1	-1	.	5	i
- Cc1cc(N2CCOCC2)nc(N2CCOCC2)c1C#N
→ .	.	-13	4	4	30	.	.
- CCOc1ccc(CCN2C(=O)C3C4CCC(O4)C3C2=O)cc1OCC (stereo not drawn)
→ .	-16	-4	-1	1	-2	.	.
- O=C(COC(=O)[C@H](Cc1ccccc1)NS(=O)(=O)c1ccccc1F)NC1CCCCC1
→ -4	-6	-19	0	2	-23	13	i
- Clc1ccc(-c2nn3c(C4COc5ccccc5O4)nnc3s2)cc1 (stereo not drawn)
→ -9	8	-14	2	-2	-28	2	i
- COc1ccc2c(c1OC)C(=O)OC2CC(=O)c1ccc(N(C)C)cc1 (stereo not drawn)
→ -6	-6	-8	5	2	.	-7	i
- O=C1Nc2ccccc2N=C(c2ccc3c(c2)OCO3)C1N(C(=O)c1ccnc2ccccc12)c1ccccc1 (stereo not drawn)
→ .	.	-3	1	-8	-131	.	.
- CCn1c(SCC(=O)NC2CCCCC2)nnc1-c1ccccn1
→ 3	.	12	0	0	-4	-11	i
- COc1ccccc1CN1CCN(C(CC(C)C)c2nnnn2Cc2cccs2)CC1 (stereo not drawn)
→ -7	.	0	-7	-9	-58	13	i
- CCc1c(C)c(C#N)c2nc3ccccc3n2c1NCCN(C)C
→ -4	-1	.	-8	-5	-1	0	i
- CCCCC1CCC(C(=O)Nc2ccccc2N2CCOCC2)CC1 (stereo not drawn)
→ .	.	-3	-2	-3	2	.	.
- Nc1cccnc1Oc1ccccc1F
→ 9	-20	-17	-1	0	1	13	i
- O=C(CCCCCN1C(=O)c2ccccc2C1=O)Nc1cccc(O)c1
→ -1	-9	-9	1	-3	6	24	i
- COc1cc(/C=C/C(=O)c2ccc(Cl)s2)cc(OC)c1O
→ -4	-13	-9	-1	1	.	1	i
- CN1CCCC1=Nc1c2c(nc3ccccc13)N(C)CC2
→ 21	1	.	-2	1	-5	12	i
- CCNc1nc(N)nc(-c2cc(Cl)ccc2O)n1
→ 6	24	-27	-2	-5	.	-9	i
- Cc1cc(OCC(=O)Nc2ccncc2)ccc1[N+](=O)[O-]
→ -2	29	-8	-2	-20	13	-2	i
- O=C(/C=C/c1ccco1)NC(=S)Nc1ccc(N2CCOCC2)c(Cl)c1
→ 1	60	-6	-1	-8	.	9	i
- CCOC(=O)c1c(C)nc2ccccc2c1-c1ccccc1
→ -4	.	-14	-3	-6	12	10	i
- COc1ccc(-n2nnnc2/C(=C/N(C)C)C(=O)c2ccccc2)cc1
→ 1	-9	-5	4	5	-7	3	i
- COc1ccc(CC(=O)Nc2cc(C)on2)cc1OC
→ 5	-8	-21	-1	2	.	2	i
- CCOc1ccc(Br)cc1CC(=O)O
→ .	-10	-22	2	1	.	.	i
- O=C(COC(=O)c1cccc(OC(F)F)c1)Nc1ncccn1
→ .	0	-38	-4	1	14	.	.
- CCN(CC)CCn1c(=S)[nH]c2cc(C(=O)N3CC=C(c4ccccc4)CC3)ccc2c1=O
→ -12	32	.	.	.	5	-1	.
- COc1cccc(NC(=S)NCCC(c2ccccc2)c2ccccc2)c1
→ -1	17	.	0	-9	.	-12	i
- CSc1ccccc1C(=O)Nc1cccc(N(C)S(C)(=O)=O)c1
→ -10	24	0	4	3	.	-3	i
- Cn1c(-c2ccc(F)cc2)cnc1NCc1cc2c(cc1[N+](=O)[O-])OCO2
→ 13	1	5	-1	1	-33	6	i
- CCOCCOC(=O)Cn1cnc2scc(-c3ccc(C)cc3)c2c1=O
→ 9	4	-5	-5	-2	5	-4	i
- Cc1ccccc1NC(=O)CCCCC(=O)Nc1ccccc1C
→ 6	-7	4	-4	-5	-3	-1	i
- O=C(Nc1cnn(Cc2ccc(Cl)cc2Cl)c1)c1noc2c1CCCC2
→ 4	55	-7	-4	-11	3	6	.
- Cc1oc(-c2ccccc2F)nc1CS(=O)(=O)CC(=O)NCCN1CCCC1
→ 10	2	5	-3	1	1	5	i
- CCCCCn1c(=O)[nH]c2cc(C(=O)NCCN3CCCCC3C)ccc2c1=O (stereo not drawn)
→ 41	-3	-5	-2	2	.	-3	i
- c1ccc(-n2cc(CN3CCCC(CN4CCCC4)C3)c(-c3ccc4c(c3)OCO4)n2)cc1 (stereo not drawn)
→ 0	33	4	-1	-2	3	-4	i
- CCC(C)(C(=O)NC1CCCCC1)N(CC1CCCO1)C(=O)CNC(=O)c1ccccc1 (stereo not drawn)
→ -5	-12	0	-4	2	-87	-11	i
- CCN(CC)C(=O)c1[nH]cnc1C(=O)Nc1ccccc1F
→ .	.	-9	-1	2	15	.	.

Carrying on:
Sequence of screens: eIF4H FP inh	CSC inhib	Yeast UUG start	MT1-MMP act inh	MT1-MMP act inh RFP	Env fusion inh	PABP FP inh	Rce1 inh
- COc1ccc2[nH]c(C(=O)NCc3ccccc3)c(C)c2c1
→ -2	1	-11	2	-5	-57	-15	i
- N/C(=N\OC(=O)CCC1CCCCC1)c1ccc([N+](=O)[O-])cc1
→ -6	2	0	0	-2	2	0	i
- C=CCNC(=O)c1ccc(-n2cccc2)cc1
→ -3	0	-9	3	4	-12	-4	i
- CCCCCC(=O)Nc1nc2ccccc2[nH]1
→ 2	2	3	0	-2	-42	1	i
- O=C(COc1ccc(Cl)cc1Cl)NCCCCc1ccccc1
→ -5	7	-7	-6	-9	0	-13	i
- OC1(c2cn(Cc3ccccc3)nn2)CCCCC1
→ -5	-8	-11	2	0	.	0	i
- N#CCSc1nc2c(sc(=S)n2Cc2ccco2)c(=O)n1-c1ccc(F)cc1
→ -3	6	6	-7	-16	37	4	i
- COCc1cc(C)nc(SCc2ccc(Cl)cc2)c1C#N
→ -10	25	-22	-3	-7	7	-8	i
- CC1(C(=O)NS(=O)(=O)c2ccccc2Cl)CCN1C(=O)Cc1cc(F)ccc1F (stereo not drawn)
→ .	.	-16	-2	-2	-13	.	.
- CC1=Nc2cc(C(=O)O)ccc2Sc2c(C)ccc(C)c21
→ 0	16	.	-3	1	6	0	i
- O=C1NC(=O)N(Cc2ccccc2)CC1Br (stereo not drawn)
→ .	.	3	-3	0	-17	.	.
- O=C(CCSc1ccccc1)Nc1nnc(-c2cccs2)o1
→ 5	6	-22	4	10	0	-3	i
- CNC(=S)N/N=C/c1c2ccccc2c(Cl)c2ccccc12
→ 32	10	-20	-7	7	21	13	i
- N#C/C(=C(/O)COC(=O)CSc1ccc(Cl)cc1)c1nc2ccccc2[nH]1
→ 13	.	.	-6	1	.	18	i
- CCCN(CCC)S(=O)(=O)c1cccc(-c2csc(C)n2)c1
→ -8	8	13	3	-10	8	-7	i
- CCOC(=O)c1nnn(CC(=O)Nc2cccc(F)c2)c1C(=O)OCC
→ 0	1	-15	-1	0	6	1	i
- O=C(COc1ccc2cc(Br)ccc2c1)N1CCOCC1
→ .	-15	1	3	-8	-38	.	.
- Cc1ccc(NC(=O)CN2CCN(C(=O)C3CCCO3)CC2)c(C)c1 (stereo not drawn)
→ -1	-4	-6	-1	5	5	0	i
- COc1ccc(NC2CCCN(C(=O)CSc3ccccc3)C2)cc1OC (stereo not drawn)
→ -2	-11	-5	2	2	3	-10	.
